Bioassay records as filed in PubChem BioAssay.
T cruzi repl: T. cruzi replication inhibition | T. cruzi beta-gal in NIH3T3, luminescence, 90 h | inhibition, % (test concentration not listed) | hit rate 1.4% among 300,000 | AID 1885;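 active = mean inhibition across valid replicates above about 55%, limit read from the data; inconclusive = mean below that limit but half or more replicates reach it; inactive = mean below it, under half of replicates reach it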;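 note: signal also drops with host cell toxicity which is not excluded here; 0% = plate median of DMSO wells and 100% = zero luminescence signal; higher percent means less beta-gal luminescence so fewer parasites; stock transfer was 50 nL into about 50 µL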
RanGTP-Imp inh: inhibitors of RanGTP-importin-beta interaction, primary screen, biochemical, FRET, CFP-Ran, YFP-importin-beta, homogeneous. hit rate 1.1% among 300,000. inhibition, % (no concentration beside the values). cell-free CFP-Ran/YFP-importin-beta FRET ratio;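 active = most replicates above 15%; inconclusive = exactly half above 15%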;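 note: 0% = DMSO wells and 100% = Ran loaded with GDP instead of GTP; wells of about 40 µL received 100 nL stock; the first replicate is given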
Vif A3G: inhibitors of Vif binding to APOBEC3G peptide, primary screen, biochemical, TR-FRET, GST-Vif 1-94, biotin-A3G peptide, dose response retest (AID 1117319) | hit rate 0.57% among 260,000 | inhibition, %; hits with a dose series show IC50 in µM | TR-FRET GST-Vif / biotin-A3G peptide binding; higher % means a stronger effect; test concentration not given here; strong numbers were not always called active;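 active = above the screen mean plus three standard deviations and confirmed in dose response; inconclusive = results disagree or hit not tested in dose response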;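 note: Vif residues 1-94 fused to GST binding biotinylated APOBEC3G peptide 110-148; 0% = full assay without inhibitor and 100% = GST in place of GST-Vif; retest series ran down from 100 µM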
LANA-H2B inh: blocks KSHV LANA binding to histone H2A/H2B; Q9QR71; inhibition, % (concentration not given with the values); hit rate 0.6% among 320,000; cell-free LANA-H2A/H2B peptide, fluorescence polarization; in the data active = inhibition mostly above about 10%, no sharp cut-off; inactive = mostly below about 6.7%;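 note: stock transfer was 7.5 nL into about 10 µL; 0% = median of vehicle wells and 100% = median of positive control wells; one replicate is shown; the record names a cut of 25% in any replicate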
Bfl-1 A1 inh: inhibitors of the anti-apoptotic protein A1, read as caspase activation | MEF A1-2A-BIM cells, Caspase-Glo 3/7 luminescence, 3 h; percent of clofoctol response, vehicle zero | caspase activation, % (no concentration beside the values) | hit rate 0.066% among 330,000;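 active = over half of replicate activation scores above 10%, or exactly half above 10 with the replicate mean above 10; inconclusive = replicate mean below 10 yet half the replicates above 10; inactive = over half of replicates below 10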;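 note: wells of about 30 µL received 50 nL stock; many hits fall short of the cut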
AF4-AF9 inh: MLL-AF4/AF9 protein interaction inhibition. P42568. hit rate 0.47% among 350,000. inhibition, % at 10 µM. AlphaScreen, biotin-AF4 peptide binding to FLAG-AF9;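 active = every replicate reaching a set inhibition limit, whatever the replicate mean, cut at about 25% in these data; inconclusive = mean inhibition reaches that limit but some replicates miss it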;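 note: 0% = plate neutral control median and 100% = total signal loss; the record names both 10 and 1 µM as test concentration; the first replicate is given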
Target sequence (P42568 whole entry, looked up): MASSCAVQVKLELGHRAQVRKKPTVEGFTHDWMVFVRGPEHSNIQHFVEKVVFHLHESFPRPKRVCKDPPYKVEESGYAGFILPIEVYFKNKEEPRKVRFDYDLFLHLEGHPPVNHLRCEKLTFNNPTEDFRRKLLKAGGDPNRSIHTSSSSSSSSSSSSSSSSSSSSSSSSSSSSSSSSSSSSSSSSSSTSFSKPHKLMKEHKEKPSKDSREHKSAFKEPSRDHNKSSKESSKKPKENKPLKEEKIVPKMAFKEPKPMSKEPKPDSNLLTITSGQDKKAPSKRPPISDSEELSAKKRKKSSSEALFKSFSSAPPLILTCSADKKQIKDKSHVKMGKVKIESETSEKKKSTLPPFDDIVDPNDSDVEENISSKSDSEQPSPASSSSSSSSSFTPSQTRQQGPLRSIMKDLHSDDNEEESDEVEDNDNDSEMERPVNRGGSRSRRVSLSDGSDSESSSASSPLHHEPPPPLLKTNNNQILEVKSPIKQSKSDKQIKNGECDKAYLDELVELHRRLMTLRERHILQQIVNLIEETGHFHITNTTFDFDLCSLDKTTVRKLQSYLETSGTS
Beta cell apopt: blocks beta cell apoptosis. INS-1E cytokine-induced death, ATP luminescence, 48 h; percent of positive-control rescue, neutral wells zero. protection from apoptosis, % (test concentration not listed). hit rate 0.8% among 300,000;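 active = all replicates at 75% or more, or half of them and the mean; inconclusive = half reach 75% but not the mean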;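 note: 0% = cytokine-treated negative control wells and 100% = positive control rescue; higher means more ATP so stronger rescue from cytokine killing; wells of about 40 µL received 100 nL stock; the first replicate is given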
Calb FLC: C. albicans growth modulation with fluconazole. growth inhibition, % (no concentration beside the values). C. albicans CaCi-2 (fluconazole-resistant clinical isolate) + fluconazole, Alamar Blue growth, 48 h. hit rate 0.57% among 300,000. AID 1979;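 active = most replicates above 75%; inconclusive = exactly half above 75%; inactive = most below 75%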;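 note: all wells also contain fluconazole at 8 µg/ml as a sub-toxic cotreatment; 0% = median of DMSO wells and 100% = median of geldanamycin control wells; wells of about 8 µL received 7.5 nL stock; the first replicate is given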
* hit, by the source's call; ? = inconclusive; . = no result given; & = joins results of further samples.

SMILES	T cruzi repl	RanGTP-Imp inh	Vif A3G	LANA-H2B inh	Bfl-1 A1 inh	AF4-AF9 inh	Beta cell apopt	Calb FLC
CCn1nc(NC(C)=O)c2cc3cccc(C)c3nc21	-4	?	-1%	-1.0	1.1	-6.8	0	1
Cc1noc(C)c1NC(=O)N(C)C[C@@H]1Oc2ccc(NC(=O)Cc3cn(C)c4ccccc34)cc2CC(=O)N([C@H](C)CO)C[C@@H]1C	.	.	.	-7.1	3.1	-2.3	-1	.
CCOC(=O)c1c(NC(=O)C2C3C=CC(C3)C2C(=O)O)sc2c1CCC(CC)C2 (stereo not given)	-9	5.2	-3%	0.1	-0.1	.	.	19
Cc1ccc(S(=O)(=O)N2CCN(C(=O)c3ccccc3)C2C(C)C)cc1 (stereo not given)	6	-1.5	5%	0.8	0.1	3.0	-4	-5
O=c1[nH]c(C2CCN(S(=O)(=O)c3ccccc3C(F)(F)F)CC2)nc2c1nnn2Cc1cccc(F)c1	23	2.2	.	-1.3	0.3	-0.1	.	0
COC(=O)c1sc2nc(SCc3ccccc3C)n(N)c(=O)c2c1C	-12	-4.1	-10%	0.5	0.0	0.1	7	2
O=C1CSC(c2cn(-c3ccccc3)nc2-c2ccccc2)N1Cc1ccco1 (stereo not given)	31	1.2	3%	0.1	0.1	.	-9	35
CCOC(=O)C1CCN(C(=O)Cn2nc(C)c3c(C)n(-c4ccccc4)nc3c2=O)CC1	-11	-2.8	.	-2.3	1.7	-0.4	-1	6
COc1ccc(OC)c(-c2nnc(SCC(=O)N3CCCc4ccccc43)o2)c1	12	1.3	6%&15%	0.5	0.2	.	5	6
CCOC(=O)c1sc(NC(=O)CCCn2nc([N+](=O)[O-])c(Cl)c2C)c(C(=O)OCC)c1C	49	-2.1	10%	-1.1	-0.7	5.3	8	0
O=C1CC(Nc2cc(=O)[nH]c(=O)[nH]2)C(=O)N1c1ccccc1Cl (stereo not given)	3	1.1	6%	2.3	0.7	5.1	-8	-2
COc1ccc(N2CCN(C(=O)c3ccc4c(Cl)c5c(nc4c3)CCCC5)CC2)cc1	-20	2.6	-9%	-2.0	-0.1	6.0	3	6

4 entries already listed, ordered by the value under AF4-AF9 inh, high to low:
| SMILES | AF4-AF9 inh |
| --- | --- |
| COc1ccc(N2CCN(C(=O)c3ccc4c(Cl)c5c(nc4c3)CCCC5)CC2)cc1 | 6.0 |
| CCOC(=O)c1sc(NC(=O)CCCn2nc([N+](=O)[O-])c(Cl)c2C)c(C(=O)OCC)c1C | 5.3 |
| CCOC(=O)C1CCN(C(=O)Cn2nc(C)c3c(C)n(-c4ccccc4)nc3c2=O)CC1 | -0.4 |
| CCn1nc(NC(C)=O)c2cc3cccc(C)c3nc21 | -6.8 |

The results go on:
SMILES	T cruzi repl	RanGTP-Imp inh	Vif A3G	LANA-H2B inh	Bfl-1 A1 inh	AF4-AF9 inh	Beta cell apopt	Calb FLC
O=C(NC(=S)Nc1cccc(Cl)c1N1CCCCC1)c1ccc2c(c1)OCCO2	35	0.8	5%	2.6	0.2	.	16	12
O=C(CSc1ccccc1C(=O)NCCCN1CCCC1=O)NCc1ccco1	3	-3.4	8%	-0.7	0.2	.	-7	7
COc1ccc(C(=O)NNC(=O)C(=O)NCc2ccccc2)cc1	-7	2.9	7%	-2.0	0.7	-1.0	-2	22
Cc1ccc(C(=O)CSc2nnc(-c3ccco3)o2)o1	-6	2.1	-5%&3%	-3.0	1.6	.	-8	-1
CNCc1cc(Cl)cc(OC)c1OC(C)C	-3	2.7	-4%	.	.	-4.8	.	-5
O=C(Cn1cnc2c(nnn2-c2cccc(Cl)c2)c1=O)NCc1ccccc1	-19	3.9	0%	-4.7	?	3.3	-6	0
Cc1cccc(NC(=O)c2c([N+](=O)[O-])c(C(C)(C)C)nn2C)c1	13	2.3	6%	-2.5	0.1	-3.7	8	6
CN(C)CC(C)(C)CNC(=S)Nc1ccc(S(=O)(=O)N2CCOCC2)cc1	1	1.4	6%	-1.9	0.2	-4.6	-4	16
O=C(CCNC(=O)Cn1cnc2ccccc2c1=O)NCC1COc2ccccc2O1 (stereo not given)	-3	-0.8	-7%	-4.2	-0.2	.	1	3
CCOc1ccccc1CNS(=O)(=O)c1ccc2c(c1)C(C)(C)C(=O)N2C	-24	-2.2	2%	0.3	-0.6	-1.8	.	-2
COCCC1CCCCN1C(=O)c1cc(COc2ccc(-n3cncn3)cc2)on1 (stereo not given)	-14	-1.4	.	2.0	0.2	-0.8	87*	3
COc1ccc(C(=O)O)cc1S(=O)(=O)Nc1cccc(C)c1	2	3.4	2%	0.6	0.6	.	0	4
CC(C)(C)OC(=O)C[C@@H]1C/C=C\C[C@@H](CC(=O)N(CCO)Cc2ccccc2)C(=O)NCCOC1=O	.	.	.	-1.2	2.1	-2.5	-8	.
COc1cc(C)c(/C=C(\C#N)C(=O)Nc2cccc(C)c2)cc1C(C)C	18	-4.7	.	-3.4	1.5	-0.3	8	-17
Cc1cc(O)c(-c2cc(C(=O)NCc3ccc4c(c3)OCO4)[nH]n2)cc1C	0	0.0	26%	-0.9	-0.3	.	-1	-13
Cc1cc(=O)c(C(=O)O)cn1-c1ccc(C(C)C)cc1	-5	-1.7	4%	-0.4	0.1	-2.5	-23	27
CC1Cn2c(nnc2-c2cc3ccccc3cc2O)S1 (stereo not given)	0	2.3	14%	-0.9	0.9	7.5	-3	17
COc1cc(C)nc(NS(=O)(=O)c2ccccc2Cl)n1	-20	2.8	2%	-0.5	-0.5	-1.1	-9	-11
CCc1ccccc1S(=O)(=O)Cc1ccc(C(=O)NC(C)C)o1	-5	1.7	-2%	-1.0	-0.5	-0.9	-6	1
COc1ccc(/C([O-])=C(/C(=S)Nc2ccc(C)c(C)c2)n2c[n+](C)c3ccccc32)cc1OC	1	-1.6	7%	1.3	-0.8	7.7	-1	6
Cc1ccc(N2CCN(c3ccc(C)cc3)C2c2ccncc2)cc1	29	-0.9	13%	1.1	0.0	.	-1	1
CCOC(=O)c1c(NC(=O)CSc2n[nH]c(-c3ccco3)n2)sc(C)c1C	14	-1.3	-3%	-0.7	0.8	.	-1	-8
COc1cccc(COCCN2CCN(S(=O)(=O)c3ccc(C)cc3)CCC2=O)c1	17	-0.7	-3%	-0.6	2.1	-1.6	4	-20
COC(=O)Cn1c(O)c(N=NC(=O)CNC(=O)c2ccc3c(c2)OCCO3)c2ccccc21	-4	-1.8	-1%	2.1	-0.6	-4.8	-8	26
Cn1c(=O)c2sccc2n2c(CCCC(=O)N3CCN(c4ccccn4)CC3)nnc12	0	3.4	.	1.2	-1.0	1.5	6	8
COc1cc(OC)nc(NC(=O)CN2CCN(c3ccc(F)cc3)CC2)n1	-7	-0.4	4%	1.9	1.0	2.6	5	0
COc1ccc(S(=O)(=O)NCC(=O)NCc2cc(=O)n(C)c(=O)n2C)cc1F	0	0.5	.	-1.3	0.2	-0.2	0	.
Cc1ccc(NC(=O)NCCCN2CCOCC2)cc1	4	-1.1	-3%	2.6	0.3	.	-10	1
CSC1=NC2(CCCCC2)C2=C(CCCC2)N1	1	4.4	5%	-3.6	0.3	2.3	-10	-5
O=C(/C=C/c1cccnc1)c1ccc([N+](=O)[O-])cc1	11	-1.2	.	4.0	0.3	2.3	-5	-3
CC(C)CNC(=O)c1nn(Cc2ccccc2)c(=O)c2ccccc12	6	1.1	.	1.1	0.0	1.1	5	13
Oc1ccc(N2CCN(c3ncnc4sc5c(c34)CCC5)CC2)cc1	-3	2.2	?	-3.3	1.0	.	0	-13
C=CCN1C(=O)C2(OCCCO2)c2cc(Cl)ccc21	-12	-3.4	.	-7.6	0.4	-8.1	-9	18
CC(=O)C1=C(C)N(Cc2ccccc2)C(=O)N[C@H]1c1cccc(C(F)(F)F)c1	0	4.4	4%	-5.3	-1.0	1.2	6	4
Cc1cc(C)n2nc(C(=O)OCC(=O)N(CCC#N)c3ccc(F)cc3)nc2n1	-2	5.5	-2%	-2.8	0.0	0.1	.	4
O=C(COc1ccc(Br)cc1Cl)NC(=O)Nc1ccc2c(c1)OCCO2	-12	-2.7	?	3.2	-0.1	-1.9	0	-1
COc1ccc(C)cc1NC(=O)CSc1nc2ccccc2nc1N1CCCCC1	-2	?	.	-2.6	-0.2	1.9	9	0
Cc1cc(Nc2cccc(Cl)c2)nc(NCc2ccccc2)n1	58*	0.7	.	2.5	-0.5	-1.0	107*	?
COCCN(C(=O)CNC(=O)c1ccco1)C(C(=O)NC1CCCC1)c1ccc(OC)cc1 (stereo not given)	-7	-2.7	.	0.7	0.8	-0.2	1	-17
CCc1nc2ccccc2n1CC(=O)N1CCN(S(=O)(=O)c2cccc(C(F)(F)F)c2)CC1	0	0.4	-4%	-3.3	0.3	.	-4	4
O=C(O)c1ccc(Nc2ccc([N+](=O)[O-])c3nonc23)cc1	9	-6.8	.	-0.4	-6.1	-2.3	.	10
Cc1cccnc1NC(=O)c1nn(C)c2c1CS(=O)(=O)c1ccccc1-2	-2	1.0	.	3.1	0.2	-8.3	4	3
CCN1CCN(S(=O)(=O)c2ccc(Cl)c(C(=O)N(C)CCOc3ccc(Cl)cc3)c2)CC1	-1	-1.3	-7%	-15	0.7	1.6	11	4
CC(=O)Nc1ccc(SCC(=O)N(CCC#N)c2ccc(C)cc2)cc1	22	4.0	-1%	4.3	-0.9	.	3	-2
O=C(NCCc1ccco1)c1cc(COc2cccc(C(F)(F)F)c2)on1	14	-6.7	.	-6.2	-0.6	-17	1	9
CCOC(=O)CSc1nc2c(sc(=S)n2-c2ccccc2)c(=O)[nH]1	-4	3.8	-8%	2.9	0.5	0.3	-2	12
Cc1ccc(NC(=O)c2ccc(S(=O)(=O)NCc3ccco3)cc2)cc1	-13	5.0	.	-4.9	0.2	-0.9	-1	0
COc1ccccc1Nc1nnc(SCC(=O)NC2CC2)s1	.	.	.	-14	-6.9	-3.7	1	.
Cc1ccc(C)c(-n2c(SCC(=O)Nc3nnc(C)s3)nnc2-c2ccoc2C)c1	-6	2.1	10%	2.5	0.7	.	-1	-2
O=C(CCc1ccccc1)N1CCN(c2ccc(Cl)cc2)CC1	10	-3.3	5%	-0.6	-0.4	.	-11	4
O=C(CCNS(=O)(=O)c1ccc(Br)cc1)NCc1ccc2c(c1)OCO2	9	-1.7	2%	3.0	0.0	.	-4	-11
O=C(COC(=O)c1ccccc1NS(=O)(=O)c1cccs1)NC1CCCCC1	-2	2.9	9%	.	0.0	.	9	6
CCCCCC(=O)NC(NC(=S)N1CCOCC1)C(Cl)(Cl)Cl (stereo not given)	8	4.3	0%	4.1	-0.4	.	1	-17
COc1ccc(C(CNC(=O)c2ccc(Cl)s2)N2CCOCC2)cc1 (stereo not given)	-4	8.4	-4%	1.0	0.1	-4.9	-9	-4
CCN(CC)C(=S)SCC(=O)Nc1ncc2c(n1)CCCC2=O	6	-0.8	12%	-2.0	0.4	-3.8	-3	-6
Cc1ccc(S(=O)(=O)N2CCC(C(=O)N3CCC3)CC2)cc1	1	2.7	.	-2.1	0.5	-0.4	-2	6
